# Assay outcomes deposited in PubChem BioAssay by National Center for Advancing Translational Sciences (NCATS).
# hNpr1 antagonist: human Npr1 receptor antagonism; P16066; HEK293 hNpr1 GloSensor cGMP, ANP-stimulated luminescence; Potency, µM (doses to about 46.3 µM), inactives show top-dose activity change, negative = inhibition, usual class: inhibitors; 1.6% of 76,000 active; AID 1347048; active = well fitted inhibition curve with a large enough effect; inconclusive = small, poorly fitted or top-dose-only effect; inactive = no such curve, though single readings can be large or run the other way;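 further: nearly all actives have a fitted effect of over 60% in size; nearly all hits also lower the signal before the agonist is added; a reference antagonist and vehicle were the controls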
# Target sequence (P16066 whole entry, looked up): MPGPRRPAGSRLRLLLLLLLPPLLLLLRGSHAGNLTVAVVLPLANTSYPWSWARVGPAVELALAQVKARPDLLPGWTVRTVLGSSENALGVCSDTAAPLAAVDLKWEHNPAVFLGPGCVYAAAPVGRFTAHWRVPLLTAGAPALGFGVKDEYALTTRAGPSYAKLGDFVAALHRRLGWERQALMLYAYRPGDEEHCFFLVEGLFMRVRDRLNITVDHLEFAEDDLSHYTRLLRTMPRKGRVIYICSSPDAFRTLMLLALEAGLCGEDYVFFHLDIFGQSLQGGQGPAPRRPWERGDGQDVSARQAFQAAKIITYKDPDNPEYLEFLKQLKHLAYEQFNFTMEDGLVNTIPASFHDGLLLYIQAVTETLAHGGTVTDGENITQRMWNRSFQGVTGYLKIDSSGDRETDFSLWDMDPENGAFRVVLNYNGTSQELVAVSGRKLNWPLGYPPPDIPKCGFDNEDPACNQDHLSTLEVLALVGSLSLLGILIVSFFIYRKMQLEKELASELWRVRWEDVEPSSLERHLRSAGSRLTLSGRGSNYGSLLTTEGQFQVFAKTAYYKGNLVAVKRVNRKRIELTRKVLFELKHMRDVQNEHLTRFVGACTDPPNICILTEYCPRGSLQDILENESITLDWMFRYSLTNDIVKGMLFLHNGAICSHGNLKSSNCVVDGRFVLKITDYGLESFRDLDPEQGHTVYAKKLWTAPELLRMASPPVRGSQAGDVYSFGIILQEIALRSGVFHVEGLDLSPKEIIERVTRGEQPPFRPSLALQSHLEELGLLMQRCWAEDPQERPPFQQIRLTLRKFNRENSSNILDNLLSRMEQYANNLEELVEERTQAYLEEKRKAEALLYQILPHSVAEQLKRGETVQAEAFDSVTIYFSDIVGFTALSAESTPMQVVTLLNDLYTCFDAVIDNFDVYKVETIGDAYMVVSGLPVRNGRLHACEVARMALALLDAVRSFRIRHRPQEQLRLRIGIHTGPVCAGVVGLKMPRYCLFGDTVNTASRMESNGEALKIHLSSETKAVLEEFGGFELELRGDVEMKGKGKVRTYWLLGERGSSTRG
#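 Compound pre-incubated 30 min at room temperature on GloSensor-loaded HEK293 cells stably carrying hNpr1 and the pGS-40F cGMP biosensor. Stimulation uses hNppA at 0.1 nM final; luminescence is taken at baseline and 20 min post-agonist.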
# * = called active by the depositor; u = inconclusive; [ ] = dose if it differs, or a comment. On the % scale 0 is the no-effect control and ±100 the full control effect; potency means the concentration at half of the fitted maximal effect. Not all compounds are listed; the hit share may differ from the screen's.
SMILES,hNpr1 antagonist
Cc1cccc(CNC(=O)CCc2conc2-c2ccccc2)c1,0.7%
Cn1ccnc1-c1cn(Cc2scnc2-c2ccccc2)nn1,-1.9%
CC1(CNc2ccccc2)COc2ccc(C(=O)NCc3ccc(F)cc3)cc2N1 (centres undefined),-19.1%[70.6 µM]
CCn1cc(-c2ccccc2)cc1C(=O)NCc1ccncc1,-18.4%
O=C(C1CC=CCC1)N1CCC(Oc2ccccc2F)(C(=O)O)CC1 (centres undefined),-13.1%
Cn1nc(-c2nncn2CC2CC2)c2c1CCN(C(=O)c1ccncc1)C2,-3.4%
COc1cccc(-c2cc3c(=O)n(CCNC(=O)Cc4ccc(F)cc4)ccn3n2)c1,u
CCC1(N2CCN(C(=O)c3sccc3C)CC2)CCN(S(C)(=O)=O)C1 (centres undefined),-1.9%
CSc1cccc(NC(=O)Cn2c(-c3cnccn3)nc(C)c(CCO)c2=O)c1,-11.4%
COc1ccc(-c2cnc([C@@H]3COCCN3Cc3ccccc3)[nH]2)cc1,-22.3%[70.6 µM]
CCOc1ccccc1CN1CCC2(CCN(Cc3ccc(F)cc3)CC2)Oc2ccccc21,15.9%
Cc1cc(C)cc(C(=O)NC2CCN(c3cc(-c4cccs4)[nH]n3)C2)c1 (centres undefined),-6.5%
Cc1ccc(NC(=O)N2CC(C(=O)N(C)C)C3(CCOCC3)C2)c(C)c1 (centres undefined),0.5%
COc1ccccc1N1CCN([C@@H]2[C@H](O)[C@H](CO)O[C@@H]2CN(C)C)CC1,1.0%
CCNC(=O)N1CC(Oc2ccc(-c3nc(C)no3)cc2)C1,-18.4%
COc1ccc(C(C)NC(=O)c2nnn3cc(C)[nH]c(=O)c23)cc1 (centres undefined),-0.1%
Cc1ccc(C)c(NC(=O)Cn2c(=O)n(-c3ccc(F)cc3)c(=O)c3c2cc(C)n3C)c1,-2.0%
O=C(c1ccc(C2CCCNC2)cc1)N1CCC(Oc2cccc(F)c2)CC1 (centres undefined),-13.8%
C[C@@H](NC(=O)C1=C[C@@H](NC(=O)Nc2cccc(F)c2)[C@@H](O)[C@H](O)C1)C(N)=O,6.0%[70.6 µM]
COc1ccccc1CNC(=O)C[C@@H]1[C@H](O)CCC2[C@](C)(CO)[C@H](OC(=O)NC3CCCCC3)CC[C@]21C (some centres undefined),-1.7%
CCC(C)NC(=O)N1CC(n2cc(C(=O)NCC3CC3)nn2)C1 (centres undefined),-9.9%
C[C@@H]1C(=O)O[C@H]2[C@H]1CC[C@@]1(C)Cc3sc(NC(=O)c4c(F)cccc4F)nc3[C@@H](C)[C@H]21,u
CC[C@H]1CN(S(=O)(=O)c2ccc(OC)cc2)CC[C@H]1CC(=O)N(C)CC#N,-1.4%[70.6 µM]
COc1ccc(-c2ccc3c(n2)CN(Cc2ccccc2)C(=O)CO3)cc1F,-17.4%[70.6 µM]
CC(C)CCN1C(=O)CC[C@H]2CN(C(=O)Cc3c[nH]c(=O)[nH]c3=O)CC[C@H]21,4.3%

# A different layout for 2 compounds above:
compound | hNpr1 antagonist
COc1ccccc1CNC(=O)C[C@@H]1[C@H](O)CCC2[C@](C)(CO)[C@H](OC(=O)NC3CCCCC3)CC[C@]21C (some centres undefined) | -1.7%
CCC(C)NC(=O)N1CC(n2cc(C(=O)NCC3CC3)nn2)C1 (centres undefined) | -9.9%

# Additional compounds
SMILES,hNpr1 antagonist
CCc1nc(-c2c3n(c(=O)n(Cc4ccc(OC(F)(F)F)cc4)c2=O)CCCC3)no1,-5.0%
CN(C(=O)Cc1ccc(F)cc1)C1CCc2ccccc21 (centres undefined),0.0%[70.6 µM]
O=C(Cn1ccccc1=O)N1CCC(N2CCSCC2)CC1,4.5%
Cc1ccsc1C(=O)N1CCN(c2cc(-c3ccccc3)[nH]n2)CC1,-3.0%
O=C(CCC[C@@H]1[C@H]2CCCN3CCC[C@@H](CN1S(=O)(=O)c1cccc(F)c1)[C@@H]23)N1CCOCC1,0.6%
O=C(O)CCn1ncc2cc(OCC3CCN(C(=O)COc4ccccc4)CC3)ccc21,1.4%[70.6 µM]
COc1cccc(CN2CCc3nc(C(=O)N4CCOCC4)oc3CC2)c1,-13.9%[70.6 µM]
Fc1ccc(Nc2cc3c(cn2)CN(Cc2ccccc2)CCN3)cc1,-21.2%[70.6 µM]
O=C(NC[C@H]1OC[C@@H](NC2CCCCC2)[C@@H]1O)c1ccccc1,-1.4%[70.6 µM]
COc1ccc(C(=O)N2CC3(Cc4ccccc4N(C(C)=O)C3)C2)cc1,27.7%
Cc1cc(C(=O)N2CCCC(c3nc(C4CCOCC4)no3)C2)nn1C (centres undefined),-10.1%
O=C(c1ccc(F)cc1F)N1CCC2(CC1)N=C(c1ccc(Br)cc1)NO2,11.2µM*
Cc1ccc2c(C(=O)N3CCCCCC3)cc(NC(=O)C3CCC3)cc2n1,3.4%
COc1ccc2nc(CO[C@H]3CN(Cc4cnn(C)c4)C[C@H]3F)[nH]c2c1,0.8%[70.6 µM]
COc1cccc(S(=O)(=O)N2C[C@@H](F)C[C@H]2C(=O)N2CCCCC2)c1,0.6%
Cc1ccc(NC(=O)N2CCC(Oc3ncccc3C(=O)N3CCOCC3)C2)cc1F (centres undefined),-8.8%
CNC(=O)[C@@H]1CN(C(=O)Cc2c(F)cccc2Cl)C[C@H]1COC,2.0%
CCCc1nc(C(=O)N2CCC3(CCCNC3)C2)cs1 (centres undefined),3.9%
COCCN(C)C[C@@H]1CN(C(=O)Cc2ccc3c(c2)OCO3)C[C@@H]1CO,4.2%
O=C1NCCCCCCN(C(=O)c2cc3ccccc3[nH]2)[C@H]2CCC[C@@H]12,-4.8%
O=C(CN1CC2CC(C1)[C@H]1CCCC(=O)N1C2)NCc1cccc(C(F)(F)F)c1 (some centres undefined),7.5%
c1ccc(CCc2nc3nccc(-c4ccsc4)n3n2)cc1,-2.9%
Cn1ncc(N2CCCC(CC(=O)Nc3cccc(Cl)c3)C2)cc1=O (centres undefined),-1.5%
O=C(NCc1ccccc1)Nc1cccn2ncnc12,2.4%
Cc1noc(C)c1CCC(=O)NCc1cc2n(n1)CCN(C(=O)N(C)C)C2,5.3%

# (listing goes on)
SMILES,hNpr1 antagonist
CC(=O)NC1(C)CCCN(Cc2cc(Br)cs2)C1 (centres undefined),-1.5%[70.6 µM]
C[C@@H]1C(=O)O[C@H]2[C@H]1CC[C@@]1(C)Cc3sc(NS(=O)(=O)c4ccc(F)cc4F)nc3[C@@H](C)[C@H]21,4.9%
Cc1ccc(NC2=N[C@H]3[C@@H](O)[C@H](O)C[C@H](C(=O)N4CCC(C(N)=O)CC4)[C@H]3S2)cc1,-1.4%[70.6 µM]
CC(C)CN1C(=O)COC[C@@H]1[C@H](O)c1ccc(NC(=O)c2cccnc2)cc1,-3.5%[70.6 µM]
O=C(Cn1c(=O)oc2ccccc21)NCC1Cn2cccc2C(=O)N1Cc1cccnc1 (centres undefined),-18.5%
Cc1ccc(OCCC2CCN(C(=O)CCn3nc(C)cc3C)C2)cc1 (centres undefined),u
C=CCNC(=O)[C@@H]1C[C@@H](O)CN1C1CCN(C(=O)c2cccc(OC)c2)CC1,2.0%
CN1CCN(c2nc3c(c(=O)[nH]2)CCN(Cc2ccccc2Cl)CC3)CC1,3.9%
CCOc1ccc(C(=O)N2C[C@@H](COC)[C@H](C(N)=O)C2)cc1,7.2%
COc1ccc(CC(=O)N2[C@@H]3CC[C@H]2CC(NC(=O)c2cnc(C)cn2)C3)cc1 (some centres undefined),3.6%
O[C@H]1[C@H](NCc2ccc(OC(F)(F)F)cc2)[C@H]2CO[C@H](O2)[C@@H]1N1CCOCC1,0.2%[70.6 µM]
CN1C(=O)C(CC(=O)NC2CCC(O)CC2)(Cc2ccccc2)c2ccccc21 (centres undefined),0.4%
COCc1nnc2n1CCC(NC(=O)C1CC=CC1)CC2 (centres undefined),-5.9%
Cc1oc2c(c1C(=O)N1CCCCCC1)CN(Cc1cccc(F)c1)CC2,-3.9%
COc1ccc(CN2C[C@H]3CN(Cc4ccc(NC(C)=O)cc4)CCN3C2=O)cc1,u
Cc1cc(C(=O)N2CCCN(S(=O)(=O)c3ccccc3)CCC(=O)NCC2)n(C)n1,-12.3%
COc1ccc(-n2nc(C3CCN(Cc4ccc(C#N)cc4)CC3)[nH]c2=O)cc1,-58.2%
COc1c(F)cc(CN(CCO)Cc2ccc(SC)cc2)cc1Cl,3.1%
CS(=O)(=O)N1CCC(Oc2ccccc2-c2nc(C3CC3)no2)C1 (centres undefined),0.8%
O=C(c1nnc(CN2CCN(c3ccccn3)CC2)n1-c1ccccc1)N1CCC[C@@H]1c1nc2ccccc2[nH]1,0.0%
Cc1ccc(NC(=O)N2CC(C(=O)N(C)C)C3(CCOCC3)C2)c(Cl)c1 (centres undefined),-9.7%
CC1=C[C@@H](CNC(=O)c2ccccn2)[C@H](C(C)C)C[C@H]1Cc1nnc(-c2ccncc2)o1,14.1µM*
Cc1cccc(C)c1NC(=O)Cn1ccn2nc3c(c2c1=O)CCCCC3,1.6%
COc1ccc(-c2cn3cc(C(=O)NCCO)nc3c(=O)n2CC2CC2)c(F)c1,4.5%
Cc1noc2ncnc(N3CCC4(CC3)CC(c3ccccc3)CN(C)C4)c12 (centres undefined),-10.0%

# Grouped by structure: the compounds so far containing a thiophene ring, fused or not
SMILES,hNpr1 antagonist
CCC1(N2CCN(C(=O)c3sccc3C)CC2)CCN(S(C)(=O)=O)C1 (centres undefined),-1.9%
Cc1cc(C)cc(C(=O)NC2CCN(c3cc(-c4cccs4)[nH]n3)C2)c1 (centres undefined),-6.5%
Cc1ccsc1C(=O)N1CCN(c2cc(-c3ccccc3)[nH]n2)CC1,-3.0%
c1ccc(CCc2nc3nccc(-c4ccsc4)n3n2)cc1,-2.9%
CC(=O)NC1(C)CCCN(Cc2cc(Br)cs2)C1 (centres undefined),-1.5%[70.6 µM]

# (further entries)
SMILES,hNpr1 antagonist
COc1cccc(S(=O)(=O)N2CCCC(Cc3nncn3CC3CC3)C2)c1 (centres undefined),-14.7%
CN(Cc1ccccc1)Cc1nnc(C(=O)N2CCC[C@@H]2c2cccc(F)c2)n1-c1ccccc1,-10.1%
CCc1noc(-c2cccn3c(CNC(=O)CCc4cccc(OC)c4)nnc23)n1,2.8%
Cc1cc(=O)[nH]c(NCCNC(=O)c2cccc(CCC(C)(C)O)c2)n1,-3.8%
Cc1ccc(-n2c(C3CCN(C(=O)c4ccc(OC(F)(F)F)cc4)CC3)n[nH]c2=O)cc1,0.0%
O=C(c1ccccc1)N1CCC(Oc2cccc(F)c2)C1 (centres undefined),-3.0%
CC(C)CCNC(=O)C1Cn2cccc2C(=O)N1CC(C)C (centres undefined),2.4%
O=c1c2c(n(Cc3cccnc3)n1-c1ccccc1)CN(CC1CCOC1)CC2 (centres undefined),1.5%[70.6 µM]
O=C(NCc1cccc(F)c1)C1CC(c2ccccc2)CN(C(=O)c2ccc(F)cc2)C1 (centres undefined),0.1%
CC(C)NC(=O)Cc1ccc(N(Cc2ccc(F)cc2)C(=O)c2ccco2)cc1,-0.5%
CCN1C(=O)COC[C@@H]1[C@H](O)c1ccc(NC(=O)c2ccnc(Cl)c2)cc1,-28.8%[70.6 µM]
CCc1cccc(NC(=O)CCn2ccn3nc4c(c3c2=O)CCCC4)c1,-11.4%
Cc1ccc(-c2noc([C@@H]3C[C@H](NS(=O)(=O)c4ccc(Cl)cc4)CN3C)n2)cc1,u
CNC(=O)N1CCCC1c1nc(C2CN(C(=O)c3cnccn3)C2)no1 (centres undefined),10.0%
CC1=NS(=O)(=O)N(Cc2ccccc2)C=C1C(=O)OCc1nc(-c2cccs2)no1,-20.4%
Cn1cccc1CN1CCC2(C1)C(=O)N(Cc1ccccc1)c1ccccc12 (centres undefined),3.8%
COc1ccc(C(=O)N2CCC3(CC2)NC(=O)N(Cc2cccc(Cl)c2)C3=O)cc1,u
NC(=O)CN1CCCC(C(=O)N2CCC(O)(c3cccnc3)CC2)C1 (centres undefined),1.9%
O=C1NCCCCCCN(C(=O)Nc2ccccc2F)[C@H]2CCC[C@@H]12,-6.6%
Cc1[nH]cnc1-c1nccn1CCCNc1cccnc1,4.2%
Cc1cc(N2CCC(NC(=O)c3ccc4nc[nH]c4c3)C2=O)ccc1F (centres undefined),-3.0%
COc1ccc(-c2nc(C)nc3c2CCN(CCC(C)C)CC3)cc1,-2.0%
C=CCCC(=O)N1CCC2(CCCN(Cc3cccc(F)c3F)C2=O)C1 (centres undefined),1.1%
COc1cccc(NC(=O)c2ccc3c(c2)C(O)CCCCCN3C)c1 (centres undefined),-23.2%
O=C(c1c(OCC2CC2)cc(=O)n2c1CCOCC2)N1CCN(c2ncccn2)CC1,-8.3%

# 5 entries from above, sorted by formula weight, rising:
SMILES,hNpr1 antagonist
Cc1[nH]cnc1-c1nccn1CCCNc1cccnc1,4.2%
O=C(c1ccccc1)N1CCC(Oc2cccc(F)c2)C1 (centres undefined),-3.0%
CNC(=O)N1CCCC1c1nc(C2CN(C(=O)c3cnccn3)C2)no1 (centres undefined),10.0%
COc1cccc(S(=O)(=O)N2CCCC(Cc3nncn3CC3CC3)C2)c1 (centres undefined),-14.7%
COc1ccc(C(=O)N2CCC3(CC2)NC(=O)N(Cc2cccc(Cl)c2)C3=O)cc1,u

# (more compounds)
SMILES,hNpr1 antagonist
O=C(NCCc1ccco1)C1c2ccccc2C(=O)N(Cc2ccccc2)C12CCCC2 (centres undefined),-12.0%
Cc1ccc(C)c(-c2cc3c(=O)n(CCNC(=O)c4cccs4)ccn3n2)c1,-6.1%
Cc1cc(C)n(CCC(=O)N[C@@H]2CN(Cc3ccccc3)C[C@H]2CN(C)C)n1,-2.5%
CCOc1ccc(-c2cc3c(=O)n(CCNC(=O)c4ccc(OC)c(F)c4)ccn3n2)cc1,-19.8%
CN1C(=O)c2cccn2CC1CNS(=O)(=O)Cc1ccccc1F (centres undefined),0.9%
OCC(O)CNc1nccc(C2(c3ccccc3Cl)CCNCC2)n1 (centres undefined),3.6%
